# Screens: PubChem BioAssay, several laboratories
# BJeLR lethal = kills HRASV12-expressing BJeLR cells; BJeLR (HRASV12) viability, CellTiter-Glo ATP luminescence, 48 h; reference of the scale not given here; inhibition, % (test concentration not listed); 0.17% of 300,000 active;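 active = replicate mean above 50%; inconclusive = above 50% but judged a plate artefact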;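 also: 50 nL library stock added to about 25 µL; numbers are from one replicate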
# RN4220 kill = kills Staphylococcus aureus RN4220; S. aureus RN4220 growth, OD600, 16 h; inhibition, % (concentration not given with the values); 0.33% of 330,000 active; AID 1259311;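 active = z-score of -3 or lower and OD600 up to 0.18 on both plates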;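 also: plate controls were untreated cells for no effect and reference antibiotic for full effect; stock transfer was 100 nL into about 80 µL; one replicate is shown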
# PrP 5UTR inh = suppresses PrP 5' UTR mRNA reporter expression. AID 488862. 0.35% of 340,000 active. cell-based PrP 5' UTR mRNA reporter, plate reader. inhibition, % (concentration not given with the values);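 active = every replicate at 50% or more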;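 also: 0 = median of the neutral control wells; tested in H4 reporter cells; numbers are from one replicate; inactives centre near -14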
# Autofluor counter = flagged as autofluorescent in microsphere protease counterscreen; AID 624483; compound autofluorescence counterscreen, microsphere flow cytometry; active compounds read high; fluorescence intensity (test concentration not listed); 3.1% of 360,000 active;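 active = at least 3 SD above the mean of all compounds, about 16000 in these data; inconclusive = too few beads counted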;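 also: 100 nL of 1 mM stock went into each well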
# Sa ugtP lethal = compounds lethal to S. aureus RN4220 ugtP deletion mutant | growth inhibition, % (no concentration beside the values) | 0.54% of 330,000 active | OD600 growth, 16 h; some inactives read as strong as hits;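 active = z-score under -3 and OD600 up to 0.15 on both plates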;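 also: plate controls were untreated wells for no effect and antibiotic for full effect; wells of about 80 µL received 100 nL stock; the first replicate is given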
# Mtb hypoxia rep = reduces hypoxia-regulated biosensor signal in M. tuberculosis | M. tuberculosis hypoxia-regulated fluorescent reporter, fluorescence | fluorescence inhibition, % (no concentration beside the values) | 0.1% of 300,000 active | AID 1159583;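 active = 35 to 45% if threefold the growth effect, above 45% if 1.5-fold the growth effect; inactive = the rest, general growth blockers included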;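 also: wells of about 50 µL received 100 nL stock; 0% = vehicle wells and 100% = reference inhibitor wells; whole bacteria with a GFP reporter of the hypoxia response; strong numbers were not always called active; many hits fall short of the cut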
# Mtb hypoxia rep growth = also measured in Mtb hypoxia rep; calls as there; growth inhibition, %; measured here: M. tuberculosis growth (absorbance);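 0% = vehicle and 100% = reference antibiotic; read after six days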
# Active calls of the source: *; ? = inconclusive; · = no result given; & = joins results of further samples.
SMILES,BJeLR lethal,RN4220 kill,PrP 5UTR inh,Autofluor counter,Sa ugtP lethal,Mtb hypoxia rep,Mtb hypoxia rep growth
CC(C)C(NC(=O)Nc1ccc(Oc2ccccc2)cc1)C(=O)O (centres undefined),·,4.5,·,·,-9.5,1.2,4.5
CCOc1ccccc1NC(=O)c1sc2ncn(CC(=O)N3CCOCC3)c(=O)c2c1C,-5.5,5.4,-8.5,3322,3.3,9.3,2.6
COc1ccc(CCNC(=O)C2CCN(S(=O)(=O)c3cccs3)CC2)cc1OC,-8.7,-0.8,-19.4,4710,6.1,1.0,2.0
COc1cc(NC(=S)N2CCN(c3ccccn3)CC2)cc(OC)c1OC,-10.0,1.7,-10.0,2130,5.0,11.7,-1.0
COc1ccc(C(=O)Cn2nnc(-c3ccccc3-n3cnnn3)n2)cc1,5.5,6.5,-23.6,7435,5.7,3.4,7.9
Cc1ccc(/C=C/C(=O)Nc2ncc(C)s2)o1,-5.2,3.1,-139.2,2016,-2.1,0.5,-4.0
COCCNC(=O)c1ccccc1NC(=O)c1ccccc1N(C)S(=O)(=O)c1ccccc1,2.2,0.0,-12.7,2873,-1.7,·,·
COCCNC(=O)/C(C#N)=C/c1cccc(OCc2ccccc2)c1,4.6,1.6,-9.6,4660,-2.8,5.2,16.4
COc1cc([N+](=O)[O-])ccc1NC(=O)NCCCN1CCCC1=O,-3.8,-0.7,-2.3,5954,5.3,2.5,-6.3
CCOC1OC(C(=O)NCc2ccccc2)=CC(C(C)(C)C)C1CCCO (centres undefined),·,3.1&-0.5,·,·,1.1&-2.4,5.7&0.3,15.1&3.1
O=C(COC(=O)c1ccccc1O)Nc1ccc(S(=O)(=O)N2CCCCC2)cc1,-3.7,11.2,-29.6,3362,-74.4,13.4,1.1
Cc1ccc(NC(=O)c2ccc3c(c2)C(=O)N(Cc2cccnc2)C3=O)c(C)c1,-27.6,1.9,9.9,4396,6.7,6.8,-0.2
CC(=NNC(=O)c1ccc(NS(=O)(=O)c2cccs2)cc1)c1ccc(O)cc1O,·,2.7,·,·,-2.9,16.0,5.4
O=C(NCc1ccco1)c1csc(Nc2ccccc2Cl)n1,-8.3,5.7,-8.6,15776,-2.0,-2.6,-0.1
CC1Cc2ccccc2N1C(=O)CSc1nncn1C (centres undefined),-2.0,1.7,-6.3,1998,0.7,9.0,-5.6
COc1cc(/C=C/C(=O)N2c3ccccc3Sc3ccc(C(F)(F)F)cc32)cc(OC)c1OC,-16.1,-8.2,-16.6,2611,-15.7,0.3,1.0
Cc1ccc(C)c(NC(=O)C(Sc2nncn2C)c2ccccc2)c1 (centres undefined),-4.9,4.1,-23.9,7743,1.7,10.5,10.6
Cc1ccc(N)c(C(=O)CCCCC(=O)O)c1,-1.6,1.1,13.6,5599,-2.3,-0.4,4.3
O=C(NCCCN1CCCC1=O)c1ccccc1NS(=O)(=O)c1ccc(F)cc1,4.8,0.5,-14.0,11915,2.7,5.0,5.1
O=C(NCCCn1ccnc1)c1ccc(Cl)c(Cl)c1,-8.2,-0.7,-19.5,3463,4.8,7.0,-1.1
O=C(Nc1nnc(COc2ccc(Cl)cc2)s1)c1ccc([N+](=O)[O-])cc1,8.4,0.9,-15.6,2782,-2.9,·,·
CCOc1cc(CNCCc2ccc(S(N)(=O)=O)cc2)ccc1OCC(=O)NC1CCCCC1,2.9,1.1,5.1,4666,-2.8,·,·
C[C@H]1CN([C@@H](C)CO)C(=O)c2cccc(NC(=O)C3CC3)c2O[C@H]1CN(C)Cc1ccncc1,·,-15.1,-12.5,3400,-4.1,0.9,8.0
O=C(Nc1cccc([N+](=O)[O-])c1)c1ccc(-c2ccccc2)cc1,7.2,·,-67.2,2421,·,·,·
O=C(OCn1nnc2ccccc2c1=O)c1cccs1,-4.4,-13.2,-16.0,5268,-2.6,16.3,8.5
Cc1oc2c(C)c3oc(=O)c(CCC(=O)NCCN4CCOCC4)c(C)c3cc2c1C,-9.2,1.7,-24.5,4944,-7.9,·,·
NC(=S)NN=Cc1cn(CCC(=O)O)nc1-c1cccc(Br)c1,·,3.6,·,·,4.5,7.1,1.6
Cc1ccc(CSc2nnc(-c3ccc(S(=O)(=O)N4CCCC4)cc3)o2)cc1,-0.3,2.8,-16.8,22758*,-3.1,-6.1,8.3
O=C(c1cccc(C(F)(F)F)c1)N1CCOc2ccccc21,10.2,0.7,0.0,3741,0.6,-2.0,7.0
O=C(Cc1c(F)cccc1Cl)OCN1C(=O)c2ccccc2C1=O,-14.1,4.5,-21.0,3649,-3.7,7.5,0.2
CCN1C(=O)C2C(c3ccc(-c4ccc(Cl)c(Cl)c4)c(OC)c3)N[C@@](C)(C(=O)OC)C2C1=O (some centres undefined),·,-5.2,·,·,10.5,20.4,11.4
Cc1ccsc1C=NNC(=S)NCCc1ccccc1,·,49.6,·,·,5.1,-7.7,6.3
Cc1cccc(Nc2n[nH]c(C)c2[N+](=O)[O-])c1,-0.5,-1.2,-89.4,7109,-6.2,2.3,-1.2
COc1ccc(S(=O)(=O)N2CCCCC2)cc1NC(=O)CCOc1cc(C)ccc1C,·,1.3,-7.0,8685,-3.7,-1.2,7.5
O=C(c1cc(N2C(=O)C3C4CCC(C4)C3C2=O)ccc1Cl)N1CCN(c2ccccc2F)CC1 (centres undefined),7.1,0.0,-27.9,2147,3.6,7.9,4.2
O=C(Nc1ccccn1)C1CCN(c2ncnc3c2nc2n3CCCCC2)CC1,4.6,-1.5,7.8,4370,5.9,-2.8,5.4
Cc1ccc(NC(=O)CSc2nnc(CNC(=O)c3ccco3)n2C)c(C)c1,-7.0,0.6,-3.1,5634,3.6,-4.3,3.9
O=C(COC(=O)/C(=C/c1cccs1)c1cccs1)NCc1ccccc1Cl,-10.9,-9.8,-29.1,2644,27.2,2.3,9.0
Cc1cc(C)n2nc(SC(C)C(=O)N3CCCC3)nc2n1 (centres undefined),·,6.0,-7.0,?,13.0,-15.8,-5.4
COc1cc(/C=C2\SC(=S)N(CCC(=O)Nc3cccc(O)c3)C2=O)cc(OC)c1OC,-7.8,2.8,-32.3,4488,2.7,4.6,1.8
CN(CC(=O)Nc1ccc(F)c(F)c1F)C(=O)C1=NN(c2ccccc2)C(=O)CC1,·,2.4,-18.7,8989,2.0,-10.3,0.1
CCOC(=O)C=c1sc2n(c1=O)CCN=2,·,-0.1,·,·,3.8,5.3,5.5
O=C(NCCCN1CCOCC1)c1ccc(-c2ccc(Cl)cc2)o1,-2.2,0.8,-17.2,2552,14.9,11.7,13.8
O=C(NCc1ccco1)C(Cc1ccccc1)N1C(=O)c2ccccc2C1=O (centres undefined),7.5,0.4,-8.2,4600,0.8,·,·
CCCCCc1nnc(NC(=O)CS(=O)(=O)Cc2ccccc2)s1,-3.1,11.3,-20.9,9086,13.5,-4.3,4.8
c1ccc(-c2nnc3sc(CN4CCC5(CC4)OCCO5)cn23)cc1,-3.4,-2.2,-32.1,20544*,-2.4,-2.8,4.6
Cc1ccc(Cn2nc(-c3ccccc3)nc2-c2ccccc2)cc1,3.4,-1.3,-40.5,4338,58.6,9.4,1.4
CCn1c(OC)nc2c1c(=O)n(C)c(=O)n2C,-0.9,5.4,-18.0,4836,4.0,6.8,-8.6
Nc1nonc1NN=C1CCCCC1,-0.7,2.1,6.5,3528,4.2,6.6,-3.1
COc1ccc(C(=O)C2CCCN(C(=O)c3noc4c3CCCC4)C2)cc1F (centres undefined),-5.7,1.9,-12.5,4160,4.9,1.3,1.1
O=C(NC(=S)N1CCCC1)c1ccccc1,0.1,·,-12.1,4513,·,·,·
Clc1ccccc1-c1nnc(-c2ccccc2Cl)o1,-2.0,9.9,-120.4,9311,-6.6,5.2,-0.1
CCN(CC)C(=O)c1ccc(COc2ccccc2Cl)cc1,-5.1,1.5,-11.2,3526,-6.1,·,·
CCOC(=O)C1=CN(Cc2cccc(F)c2)S(=O)(=O)N(CC)C1c1ccc(Br)cc1F (centres undefined),·,-7.3,-10.2,3619,-10.5,1.0,1.5
O=C(NS(=O)(=O)c1ccccc1)c1cccc(Br)c1,-0.9,2.9,-9.0,6246,12.4,4.3,7.4
CN(C)S(=O)(=O)c1ccc(Cl)c(C(=O)NC2=NCCS2)c1,2.6,2.7,-13.1,3931,-1.0,6.8,10.9
CCOC(=O)c1c(NC(=O)CCN2CCOCC2)sc(C)c1-c1ccccc1,-2.2,6.2,-4.3,2353,8.8,12.7,6.4
CCC(C)NC(=O)C1CCN(S(=O)(=O)c2ccc3c(c2)CC(C)N3C(C)=O)CC1 (centres undefined),0.3,1.0,-14.7,6697,4.6,11.3,5.7
Nc1ccc(CNC(=O)OCC2c3ccccc3-c3ccccc32)cc1,-7.6,-1.3,-10.2,3397,3.8,13.8,-0.6
O=C(C=C1CCN(c2ncc(C(F)(F)F)cc2Cl)CC1)NNC(=O)Nc1ccc(Cl)cc1,-4.5,7.5,-28.8,5714,-12.7,8.3,7.6
# (cont.)
SMILES,BJeLR lethal,RN4220 kill,PrP 5UTR inh,Autofluor counter,Sa ugtP lethal,Mtb hypoxia rep,Mtb hypoxia rep growth
COCCn1c(=O)[nH]c2cc(C(=O)NCCc3ccc(S(N)(=O)=O)cc3)ccc2c1=O,-2.7,2.8,-38.9,2749,4.2,6.2,5.1
Cc1cnc(NC(=O)c2ccc3c(c2)C(=O)N(Cc2cccnc2)C3=O)s1,0.0,3.7,-15.8,5719,2.4,4.7,17.8
CSc1nc(=S)c2[nH]c(=S)[nH]c2[nH]1,-7.7,2.9,-11.1,3283,1.4,13.3,12.8
COc1ccc2oc(C(=O)OCC(=O)Nc3ccc(OC)c(S(N)(=O)=O)c3)c(C)c2c1,-2.3,4.9,-26.0,5768,-0.2,-5.2,6.4
O=C(CN1CCN(CC(=O)Nc2cccc(F)c2)CC1)Nc1ccc(-c2ccccc2)cc1,4.9,-1.0,-16.0,3812,8.6,10.3,0.2
CC(Sc1nc2ccccc2s1)C(=O)Nc1ccc2c(c1)OCO2 (centres undefined),-3.9,0.5,5.8,2435,8.5,7.3,5.6
COc1ccc(S(=O)(=O)N2CCCCC2)cc1Br,1.0,-1.0,-27.8,4464,1.1,·,·
CCCNC(=O)c1nc(C)n(-c2ccc([N+](=O)[O-])cc2)n1,0.4,7.7,-14.9,3496,2.8,7.5,-27.6
CCOc1ccccc1NC(=O)Nc1ccccn1,-5.3,4.3,-17.0,5102,4.5,-6.2,-0.7
Cc1ccc(OCc2cc(C(=O)N(C)CCc3ccccn3)no2)cn1,5.3,2.3,1.6,5841,1.4,5.6,7.1
O=C(CN(Cc1ccccc1F)S(=O)(=O)c1ccc(Cl)cc1)NCCC1=CCCCC1,7.8,7.3,-14.2,5136,-8.6,1.8,9.5
CCCS(=O)(=O)N1CCCC(C(=O)NCC(OC)OC)C1 (centres undefined),3.2,3.7,-9.5,7645,3.2,15.5,-2.0
CN(C)/C=C(\C#N)C(=O)N/N=C/c1ccc(Cl)cc1,3.6,·,-35.6,2167,·,·,·
CC(CCc1ccc2c(c1)OCO2)=NN=C(N)SC1CC(=O)N(c2ccc(Cl)cc2)C1=O (centres undefined),·,0.1,·,·,-11.4,24.5,15.0
Cc1nnc(SCC(=O)N2CCN(S(=O)(=O)c3ccccc3)CC2)[nH]c1=O,0.0,7.0,-7.8,2768,4.3,9.0,2.2
Cc1ccc(-c2nc(CSCC(=O)NCCCN3CCOCC3)c(C)o2)cc1,-9.9,2.7,-12.9,9573,2.9,-1.3,3.7
O=C(COC(=O)/C=C/c1cc(Br)ccc1F)NC1CC1,·,3.6,-7.0,3019,4.3,3.7,6.1
CC(=O)Oc1c(C(=O)c2nnc(C)o2)c(=O)n(Cc2ccccc2)c2ccccc12,3.9,3.8,-1.7,1629,0.1,-4.2,7.0
CCOc1cc(CN2CCSCC2)ccc1O,1.7,7.2,-4.7,16487*,13.0,5.4,-6.4

# 4 entries from above, bar-delimited:
compound | BJeLR lethal | RN4220 kill | PrP 5UTR inh | Autofluor counter | Sa ugtP lethal | Mtb hypoxia rep | Mtb hypoxia rep growth
NC(=S)NN=Cc1cn(CCC(=O)O)nc1-c1cccc(Br)c1 | · | 3.6 | · | · | 4.5 | 7.1 | 1.6
Cc1ccc(CSc2nnc(-c3ccc(S(=O)(=O)N4CCCC4)cc3)o2)cc1 | -0.3 | 2.8 | -16.8 | 22758* | -3.1 | -6.1 | 8.3
O=C(c1cccc(C(F)(F)F)c1)N1CCOc2ccccc21 | 10.2 | 0.7 | 0.0 | 3741 | 0.6 | -2.0 | 7.0
O=C(Cc1c(F)cccc1Cl)OCN1C(=O)c2ccccc2C1=O | -14.1 | 4.5 | -21.0 | 3649 | -3.7 | 7.5 | 0.2
